StopGo reporter – High Throughput Screening for Foot and Mouth Disease Virus Antivirals; human cells with a luciferase reporter of 2A StopGo recoding; control for the full effect not named in the record; Potency, µM (series often up to 57.9 µM), inactives show at the top dose signal change, negative = less light; hit rate 1.2% among 410,000; AID 1159524, 2015; active = well fitted falling curve with a large enough effect; inconclusive = small, poorly fitted or top-dose-only effect; inactive = no such curve, though single readings can be large or run the other way; tested in HEK293T cells; also: % is scaled to controls: 0 for no effect and ±100 for the full control effect; nearly all actives have a fitted effect of over 45% in size; luciferase light after 4 h
SARS PLpro yeast – qHTS of Yeast-based Assay for SARS-CoV PLP; S. cerevisiae expressing SARS-CoV PLpro, growth rescue; control for the full effect not named in the record; Potency, µM (titrated, usually from 32.9 µM), for inactives: at the highest dose activity, positive = growth rescue; hit rate 0.19% among 330,000; AID 485353, 2010; also: 0% is about no effect; nearly all actives have a fitted effect of over 55% in size; growth read by luminescence after 48 h
NS1 function inh – qHTS Assay for Inhibitors of Influenza NS1 Protein Function. S. cerevisiae slowed by influenza A NS1, growth recovery by OD600. Potency, µM (top dose mostly 46.1 µM), inactives show at the highest dose activity, positive = more growth. hit rate 0.4% among 270,000; also: actives are rising curves; nearly all actives have a fitted effect of over 50% in size
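OD600 was taken as the measure of yeast growth restored by compound in an NS1-expressing S. cerevisiae strain. Cells had been washed out of glucose medium and diluted 1:100 into galactose -URA medium, pH 6.0.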
Cruzain noTriton – qHTS Assay for Promiscuous and Specific Inhibitors of Cruzain (without detergent) | Cruzipain (Trypanosoma cruzi), P25779 | purified cruzain, Z-FR-AMC fluorescence, no detergent | Potency, µM, inactives show max response, negative = inhibition, most hits filed as inhibitors | hit rate 2.3% among 200,000 | AID 1476, 2009; active = well fitted curve in the direction sought with a large enough effect; inconclusive = small, poorly fitted or top-dose-only effect, or another doubt; inactive = no such curve, though single readings can be large; an effect the other way counts as inactive or inconclusive;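 also: plate controls were enzyme without inhibitor for no effect and buffer without enzyme for full effect; nearly all actives have a fitted effect of over 40% in size; top concentration of the series not given in the record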
Target sequence (P25779 123-467 limits assumed): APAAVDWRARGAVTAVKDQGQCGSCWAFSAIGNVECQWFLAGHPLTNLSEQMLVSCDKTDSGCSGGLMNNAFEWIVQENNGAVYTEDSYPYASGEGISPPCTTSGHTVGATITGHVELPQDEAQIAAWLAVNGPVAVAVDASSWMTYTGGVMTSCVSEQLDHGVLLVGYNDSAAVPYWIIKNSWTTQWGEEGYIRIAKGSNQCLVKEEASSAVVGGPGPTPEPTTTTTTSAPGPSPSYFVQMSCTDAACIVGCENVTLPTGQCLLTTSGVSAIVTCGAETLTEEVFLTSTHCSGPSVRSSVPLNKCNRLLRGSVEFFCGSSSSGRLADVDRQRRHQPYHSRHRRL
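Purified cruzain at 1.5 nM, pre-incubated 15 min with compound at room temperature in 100 mM sodium acetate pH 5.5, 5 mM DTT, 0.00005% Triton X-100. Reaction started with 2 uM Z-FR-AMC; AMC fluorescence increase over 60 s gives rate.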
RE007 growth inh – qHTS Assay for Inhibitors of the HIV-1 protein Vpr; S. pombe RE007 Vpr strain, BacTiter-Glo ATP luminescence, 24 h; control for the full effect not named in the record; Potency, µM (titrated, usually from 92.2 µM), without a hit: top-dose activity change, negative = less growth; hit rate 0.21% among 360,000; AID 651644, 2012; active = well fitted falling curve with a large enough effect; inconclusive = small, poorly fitted or top-dose-only effect; inactive = no such curve, though single readings can be large or run the other way;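 also: % is scaled to controls: 0 for no effect and ±100 for the full control effect; nearly all actives have a fitted effect of over 50% in size; the assay follows cell death caused by Vpr and the record does not say whether a fall means rescue or toxicity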
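Fission yeast strain RE007, carrying one chromosomally integrated HIV-1 vpr copy, was seeded at OD 0.01 in PMG+AL medium with 23 nL pinned compound. After 24 h at 30 °C and 99% humidity, viability was read by BacTiter-Glo luminescence.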
Cruzain inh Det – qHTS Assay for Promiscuous and Specific Inhibitors of Cruzain (with detergent). AID 1478, 2009. Cruzipain (Trypanosoma cruzi), P25779. hit rate 0.43% among 200,000. Potency, µM, for inactives: max response, negative = inhibition, usual class: inhibitors. purified cruzain, Z-FR-AMC fluorescence, 0.01% Triton; active = well fitted curve in the direction sought with a large enough effect; inconclusive = small, poorly fitted or top-dose-only effect, or another doubt; inactive = no such curve, though single readings can be large; an effect the other way counts as inactive or inconclusive;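 also: plate controls were neutral wells for no effect and buffer without enzyme for full effect; nearly all actives have a fitted effect of over 40% in size; top concentration of the series not given in the record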
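Detergent-containing run (0.01% Triton X-100) in acetate buffer pH 5.5 with 5 mM DTT: enzyme at 1.5 nM final, 15 min compound preincubation at room temperature, then 2 uM Z-FR-AMC substrate. Activity taken as 60 s fluorescence increase at 360/450 nm.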
Marburg entry inh – qHTS for inhibitors of binding or entry into cells for Marburg Virus. Marburg virus pseudotyped entry inhibition, cell reporter; control for the full effect not named in the record; about a third of the inactives were read at about 46 µM. Potency, µM (titrated, usually from 37.8 µM), for inactives: at the highest dose activity change, negative = inhibition, hits mostly inhibitors. hit rate 1.8% among 300,000. AID 540276, 2011; active = well fitted inhibition curve with a large enough effect; inconclusive = small, poorly fitted or top-dose-only effect, or effect the other way; inactive = flat fitted curve, though single readings scatter; tested in HEK293 cells; about a fifth of its hits are not listed in these tables; also: % is scaled to controls: 0 for no effect and ±100 for the full control effect; luciferase read-out
LASV entry inh – qHTS for Inhibitors of binding or entry into cells for Lassa Virus; Lassa virus pseudotype entry inhibition, cell reporter; control for the full effect not named in the record; Potency, µM (series often up to 37.9 µM), for the others: at the top dose activity change, negative = inhibition, most hits filed as inhibitors; hit rate 1.2% among 300,000; active means well fitted inhibition curve with a large enough effect; inconclusive means small, poorly fitted or top-dose-only effect, or effect the other way; inactive means flat fitted curve, though single readings scatter; tested in HEK293 cells; also: % is scaled to controls: 0 for no effect and ±100 for the full control effect; nearly all actives have a fitted effect of over 50% in size; luciferase read-out
Starred values were filed as active, the others as inactive; ? = inconclusive; . = no result given; & = joins results of further samples; [ ] = another dose, or the depositor's remark. Unless noted, calls follow the shape of the dose curve; as a rule, active means well fitted rising curve with a large enough effect; inconclusive means small, poorly fitted or top-dose-only effect; inactive means no such curve, though single readings can be large or run the other way. Potency is read from the fitted curve at half-maximal effect.

SMILES	StopGo reporter	SARS PLpro yeast	NS1 function inh	Cruzain noTriton	RE007 growth inh	Cruzain inh Det	Marburg entry inh	LASV entry inh
COc1ccc(/C=C/C(=O)NC(=S)N2CCN(c3ccccn3)CC2)cc1OC	-20%	-1%	-12%	.	7%	.	6%	2%
CC(C)COc1ccccc1C1CC(=O)Nc2cc3c(cc21)OCO3 (stereo not drawn)	?	.	.	3%	.	-13%	?	-22%[46.1 µM]
Cc1c(N=C2C=CC(=O)c3ccccc32)c(=O)n(-c2ccccc2)n1C	35µM*	-5%	.	.	?	.	?	-2%
CNC(=S)N1CCN(c2ccccn2)CC1	-2%	-4%	9%	-4%	-3%	0.6%	3%	6%
O=C1NCCN1CCNS(=O)(=O)c1ccc(F)cc1	-7%	-28%	7%	5%	-12%	-1.1%	10%	10%
COC(=O)CN(c1ccc(OC)cc1)S(=O)(=O)c1ccc(OC)c(OC)c1	10%	-1%	-13%	2%	8%	4.2%	?	-25%
C=CCNC(=S)NNC(=O)c1cc(Cl)ccc1OC	3%	-1%	4%	.	18%	.	-14%[46.1 µM]	12%
N#CC1=C(N)OC2=C(C(=O)CCC2)C1Cc1ccccc1 (stereo not drawn)	-10%	.	5%	.	1%	.	-2%	-6%
COc1ccc(C(=O)NC23CC4CC(CC(C4)C2)C3)cc1OC	-3%	1%	-3%	.	-19%	.	.	.
CC(C)(C)NC(=O)C(c1ccncc1)N(C(=O)c1csnn1)c1cccc2ccccc12 (stereo not drawn)	7%	-1%	1%	.	-8%	.	5%[46.1 µM]	-13%
Cc1oc(-c2ccccc2)nc1C(=O)Nc1nccs1	39%[activator]	-7%	-3%	-10%	-2%	-1.5%	0%	4%
COc1ccc(N(C(=O)c2snc(C(N)=O)c2N)C(CC(C)C)C(=O)NCC2CCCO2)cc1 (stereo not drawn)	-7%	-2%	0%	.	4%	.	?	-21%[46.1 µM]
COc1cc(NC(=O)C2CC(=O)N(Cc3ccco3)C2)cc(OC)c1 (stereo not drawn)	-3%	-7%	.	.	-1%	.	-5%	19%
CCCn1c(=N)n(CC(=O)c2ccc(Cl)cc2)c2ccccc21	12%	3%	-3%	.	-21%	.	?	?
O=c1c2ccccc2nnn1COc1cccc(Cl)c1	65%[activator]	-1%	-3%	.	-3%	.	.	.
CC(c1ccncn1)N(C)Cc1nc(Cc2ccccc2F)no1 (stereo not drawn)	-1%	0%	2%	.	-12%	.	16%[46.1 µM]	29%
COc1ccc(/C=C(/NC(=O)c2ccccc2)C(=O)N2CCOCC2)cc1OC	9%	0%	?	.	10%	.	15%[46.1 µM]	21%[46.1 µM]
O=C(Cc1ccccc1)NC1CCSc2ccccc21 (stereo not drawn)	-2%	-1%	5%	.	-16%	.	.	.
CCCCOc1ccc(C2/C(=C(\O)c3ccc4c(c3)OCCO4)C(=O)C(=O)N2CCCN2CCOCC2)cc1 (stereo not drawn)	-22%	-7%	-3%	.	2%	.	20%	2%
COc1ccc(C2(C(=O)N3CCOCC3)CCCC2)cc1	-12%	3%	3%	-3%	11%	1.9%	7%	10%
COc1cc(OC)c(NC(=O)CCc2nc(-c3ccc(C)cc3)no2)cc1Cl	-22%	3%	?	0%	4%	-4.6%	-17%	?
CNC(C(=O)c1ccccc1)C(OC(C)C)c1ccc(Cl)cc1 (stereo not drawn)	-9%	-4%	-10%	4%	-1%	1.2%	?	15%
Cc1[nH]n(C(N)=S)c(=O)c1N=Nc1ccc(S(=O)(=O)N2CCCCCC2)cc1	22%	?	3%	0%	-9%	-12%	5%	16%
Cc1cc(C(=O)Nc2nncs2)oc1C	24%	-1%	2%	.	-5%	.	.	.
O=C1C(Cl)=C(N2CCCCCC2)C(=O)N1c1ccccc1Cl	-24%	-3%	-3%	.	-4%	.	.	.
(continued)
SMILES	StopGo reporter	SARS PLpro yeast	NS1 function inh	Cruzain noTriton	RE007 growth inh	Cruzain inh Det	Marburg entry inh	LASV entry inh
Cc1cc(C)c(NC(=O)CSc2nc3ccccc3c3nc(CCn4cncc4C)nn23)c(C)c1	-5%	.	.	-1%	.	0.8%	.	-21%[46.1 µM]
CNc1ncc(C(=O)c2ccc(Cl)cc2)s1	0%	-6%	-23%	-7%	-21%	-6.0%	-2%	-1%
O=C(CSc1cccc[n+]1[O-])c1ccc(-c2ccccc2)cc1	18%	-1%	.	.	?	.	?	?
O=C(NNc1ccccc1[N+](=O)[O-])NC1CCCCC1	-7%	-1%	.	.	-1%	.	-21%[46.1 µM]	16%
CNc1nc2cc([N+](=O)[O-])c([N+](=O)[O-])cc2nc1NC	?	-15%	0%	-4%	5%	2.7%	7.9µM*	-28%
COc1cc(NC(=O)c2ccc3c(c2)S(=O)(=O)N=C2CCCCCN23)cc(OC)c1	-22%	-4%	.	.	3%	.	5%	-7%
CCN1c2ccccc2-c2nc3ccccc3n2C1c1ccco1 (stereo not drawn)	-43%	-20%	-168%	?	9%	-9.5%	-13%	0%
COc1cc(C(=O)OCCCN=C2NS(=O)(=O)c3ccccc32)cc(OC)c1OC	-1%	1%	-1%	.	4%	.	16%	6%[46.1 µM]
Cc1cccc(NC(=O)COC(=O)CN2CCCCCC2=O)c1C	5%	1%	.	.	-7%	.	7%	14%
Cc1cccc(OCCn2cccc2/C=C2/C(=O)NC(=O)N(Cc3ccco3)C2=O)c1	-2%	0%	9%	.	-9%	.	6%[46.1 µM]	-22%[46.1 µM]
C=C(Br)Cn1c(CCC)nc2ccccc21	20%	-3%	-19%	-2%	-11%	4.1%	-1%	0%
O=C(CCN1C(=O)c2ccccc2C1=O)C1=NN[C@@H]2C(=O)N(c3ccc4c(c3)OCCO4)C(=O)[C@H]12	-8%	-1%	-14%	.	-15%	.	1%	14%
COc1cccc(-c2csc3nc[nH]c(=O)c23)c1	18%	1%	-2%	9%	21%	3.5%	-4%[46.1 µM]	?
COc1ccc(Cl)cc1NC(=O)c1ccccc1C	-7%	-1%	-6%	-7%	-23%	-5.3%	3%	2%
Cc1cc(C)c(NC(=S)NCCCSC2CCCCC2)c(C)c1	-14%	-12%	.	.	-7%	.	?	?
Cc1ccc(C)c(NC(=O)COC(=O)c2ccc(S(=O)(=O)N3CCCCC3)cc2)c1	1%	-1%	.	.	-2%	.	5%	5%
CN(Cc1ccc(F)cc1)C(=O)c1cc(COc2ccc(-n3cncn3)cc2)on1	?	-9%	-27%	.	7%	.	-14%	?
CN(c1ccc(C(=O)N2CCN(c3ccc(F)cc3)CC2)cc1)S(C)(=O)=O	-1%	-1%	0%	8%	-16%	-2.1%	11%	14%
O=C(c1c[nH]c2ccc(S(=O)(=O)Nc3ccccc3F)cc2c1=O)N1CCCCCC1	7%	.	.	-14%	.	-2.6%	-5%[46.1 µM]	8%[46.1 µM]
CCOP(=O)(OCC)c1nc(/C=C/c2ccccc2)oc1NCc1ccc(OC)cc1	?	-14%	16%	?	-7%	23%	?	-17%
CN(C)C(CNc1ccc(C(F)(F)F)cn1)c1ccccc1 (stereo not drawn)	-17%	-3%	0%	.	9%	.	?	?
COc1cccc(/C=N/Nc2nc(Nc3ccccc3)nc(-n3nc(C)cc3C)n2)c1O	-23%	13%	6%	24%	2%	-8.7%	?	16µM*
NS(=O)(=O)c1cc(Cl)c(Cl)c(S(N)(=O)=O)c1	-4%	.	.	-11%	8%[18.4 µM]	-9.1%	.	.
O=C(CS(=O)(=O)Cc1ccccc1)N1CCN(Cc2ccc3c(c2)OCO3)CC1	-4%	-3%	3%	-7%	-10%	-2.7%	28%	-9%
CCOC(=O)C1CCCN(C(=S)Nc2cc(C)cc(C)c2)C1 (stereo not drawn)	14%	-1%	-4%	9%	7%	1.1%	?	-31%
Continued:
SMILES	StopGo reporter	SARS PLpro yeast	NS1 function inh	Cruzain noTriton	RE007 growth inh	Cruzain inh Det	Marburg entry inh	LASV entry inh
COc1ccc(CNS(=O)(=O)c2cc3c(cc2Cl)NC(=O)CO3)cc1	-10%&6%	-3%	2%	-2%	-4%	-11%	.	-11%[46.1 µM]
COc1ccc(OC)c(-n2nnc(-c3nc(-c4ccc5c(c4)OCO5)no3)c2C)c1	24%	.	.	-2%	.	1.9%	.	-4%[46.1 µM]
Cn1cc(CN2C[C@H]3CC[C@H]2C3)c(-c2ccccc2F)n1	13%	0%	8%	.	5%	.	.	.
O=C(O)c1cccc(Nc2ccnc(Nc3cccc(C(=O)O)c3)n2)c1	?	2%	4%	.	-20%	.	?	?
COCCCn1c(=NC(C)=O)c(C#N)cc2c(=O)n3cccc(C)c3nc21	-4%	0%	-2%	.	-7%	.	0%[46.1 µM]	9%
C=CCSc1nc(O)c(CC)c(=O)n1C(C)CC (stereo not drawn)	5%	-7%	9%	-3%	17%	-4.5%	-22%	-12%[14.3 µM]
Nn1c(-c2cccc(O)c2)nnc1-c1cccc(O)c1	12%	.	.	.	23%	.	12%	11%
Cc1ccc(SCC(=O)N(C)C2CCS(=O)(=O)C2)cc1 (stereo not drawn)	-6%	-1%	2%	.	6%	.	.	.
CCOC(=O)C1(Cc2ccc(Cl)cc2)CCN(C(=O)c2sc(C)nc2C)CC1	32µM*	0%	-2%	.	5%	.	.	.
CCCc1cc(=O)[nH]c(Nc2ccc3c(c2)OCCO3)n1	-2%	-1%	.	.	14%	.	-1%	0%
NNC(=O)c1ccccc1OCCOc1ccccc1	-9%	8%	9%	.	-1%	.	-1%[46.1 µM]	3%[46.1 µM]
Cc1cc(C)n(-c2nc(NCCCO)c3c4c(sc3n2)CCCC4)n1	12%	-3%	-105%	?	-2%	-9.3%	?	-5%
O=c1[nH]c(SCc2ccccc2Cl)nc2c1CCC2	-5%	0%	0%	-7%	7%	1.5%	6%	17%
Cc1[nH]c(=O)[nH]c(=O)c1/C=C/C(=O)OCC(C)C	-1%	-5%	2%	-8%	18%	-2.6%	18%	11%
CCCc1nnc(NC(=O)CSc2nnc(-c3ccco3)n2C)s1	-12%	1%	16%	.	5%	.	-7%[46.1 µM]	11%[46.1 µM]
CCCOC(=O)c1c(NC(=O)/C=C/c2cnn(C)c2C)sc(C(=O)OC)c1C	-12%	0%	-5%	-4%	6%	-2.8%	-15%	-40%[14.3 µM]

Screening results: PubChem BioAssay, National Center for Advancing Translational Sciences (NCATS)
